# Screening data deposited in PubChem by Fisher Drug Discovery Resource Center.
# NPYLR7 ag = mosquito NPYLR7 agonism | HEK293T NPYLR7/Galpha15, GCaMP6s calcium fluorescence | activation, % at 10 µM | hit rate 0.15% among 270,000 | AID 1259423; in the data active = activation above about 40%;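 note: 0% = vehicle and 100% = reference agonist at the receptor; some compounds past the cut are filed as inactive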
# NPYLR7 ag max-min = further read-out of NPYLR7 ag, marked with its call; activation, %; measured here: Max-Min RFU normalised activation; some inactives read as strong as hits;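 span of the calcium signal over five minutes; 0% = vehicle and 100% = native peptide agonist; compound fluorescence can raise it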
# * hit, by the source's call. Not all compounds are listed; rates above refer to the full screens.
# Start of the data: the first two entries, ahead of the listing:
SMILES,NPYLR7 ag,NPYLR7 ag max-min
Cc1cc(C)c(NC(=O)CCc2c(C)noc2C)c(C)c1,-2.4,-3.6
CC(C)c1cc(C(C)C)c(C(=O)NCc2ccc(-c3ncc(-c4ccc(F)cc4)[nH]3)cc2)c(C(C)C)c1,0.4,2.0

# The listing, from the first entry:
SMILES,NPYLR7 ag,NPYLR7 ag max-min
Cc1cc(C)c(NC(=O)CCc2c(C)noc2C)c(C)c1,-2.4,-3.6
CC(C)c1cc(C(C)C)c(C(=O)NCc2ccc(-c3ncc(-c4ccc(F)cc4)[nH]3)cc2)c(C(C)C)c1,0.4,2.0
NC1CCN(c2ccccc2C(=O)N2CCN(C(=O)C3CCCO3)CC2)CC1 (configuration not stated),-8.6,-3.0
COCCN(Cc1ccc(C(O)(c2cccs2)c2cccs2)o1)Cc1ccccc1F,16.4,17.8
CC(C)(C)OC(=O)CSc1nc2scc(-c3cccs3)c2c(=O)[nH]1,6.8,4.4
Cc1c(O)cc2n(c1=O)-c1ccccc1C2(C)C,4.9,4.9
CCOc1cc(Br)nc(Br)c1Br,5.3,6.0
CC(C)CNC(=O)COC(=O)C=Cc1cccs1,2.1,-1.5
COC(=O)CCCCC(=O)Nc1cccc(-c2cccc(-c3ccc(F)cc3)n2)c1,-1.2,4.2
O=C1c2ccccc2C(=O)c2c(NC(=O)c3sc4ccccc4c3Cl)cccc21,-3.7,-8.9
CN(C)c1cncc(-c2cc(O)cc(CCC3CCCCN3)c2)n1 (configuration not stated),5.5,6.4
COc1ccccc1CN1CCn2nc(C(=O)NCCc3ccc(OC)c(OC)c3)cc2C1=O,3.9,7.5
Cc1[nH]cnc1CN1CCC(CNS(=O)(=O)c2cccs2)C1 (configuration not stated),3.1,-1.4
COc1ccccc1Nc1ncc([N+](=O)[O-])cc1[N+](=O)[O-],9.4,11.0
CC(NC(=O)C(C)n1c(=O)oc2ccccc21)c1ccccc1F (configuration not stated),1.5,0.5
O=C(c1ccccc1N1CCC(NS(=O)(=O)c2ccc(F)cc2)CC1)N1CCc2ccccc2C1,8.0,15.7
CC(C)CC(=O)Nc1ccnn1C1CCN(C(=O)C(C)Oc2cccc(Cl)c2)CC1 (configuration not stated),17.3,8.7
O=c1oc2ccc(Br)cc2cc1-c1nc(-c2ccccc2)cs1,-4.1,-8.5
CCc1nc2c(OCC(=O)C(C)(C)C)cccn2c1N(C)C(=O)c1ccc(C)cc1,-15.3,1.9
CC(/C=C1\N=C(c2ccc(Cl)cc2Cl)OC1=O)=C\c1ccccc1,-0.6,-3.5
CCOC(=O)Cn1c(=NC(=O)c2cc(C)no2)sc2cccc(F)c21,5.3,8.0
COc1ccccc1NCN1C(=O)c2cccc3cccc(c23)C1=O,6.3,0.7
Brc1ccsc1-c1csc(CN2CCOCC2)n1,-0.8,-7.4
O=C(c1ccco1)N(Cc1cccc(F)c1)CC1CC(c2ccc(F)cc2F)=NO1 (configuration not stated),28.1,33.2
COc1cc(OC)cc(-c2nnc(SCc3cccc(C#N)c3)n2C2CCCCC2)c1,1.7,4.8
O=C(Cn1cncn1)NC1CCCN(CC2CCCCC2)C1 (configuration not stated),-5.4,-8.0
COc1ccc2c(c1)C1(SCCN1C(=O)c1ccco1)C(=O)N2Cc1ccccc1Cl (configuration not stated),9.7,7.4
O=C(CSc1ccc2nnc(CCNC(=O)c3ccccc3)n2n1)OCc1ccccc1,17.3,11.9
CCOC(=O)c1ccc(N=Cc2ccc(C)s2)cc1,3.7,1.5
COc1ccc(CCC(=O)NCCn2ncc3c(N4CCN(c5ccccc5)CC4)ncnc32)cc1,0.8,-1.0

# Looked up one by one from above, 2 records:
SMILES,NPYLR7 ag,NPYLR7 ag max-min
COc1cc(OC)cc(-c2nnc(SCc3cccc(C#N)c3)n2C2CCCCC2)c1,1.7,4.8
O=C(c1ccco1)N(Cc1cccc(F)c1)CC1CC(c2ccc(F)cc2F)=NO1 (configuration not stated),28.1,33.2

# Later entries
SMILES,NPYLR7 ag,NPYLR7 ag max-min
O=c1cccc2n1CC1CC2CN(c2nc(NCCC3=CCCCC3)nc(N3CCOCC3)n2)C1 (configuration not stated),-4.8,-9.6
C[C@@H](NC(=O)N1CCC2(CC1)NCCNC2=O)c1ccc(Cl)cc1,6.5,4.2
COc1ccc(C(=O)N2C(C(=O)NCC3CCCO3)COC23CCN(C(=O)c2c(OC)cccc2OC)CC3)cc1 (configuration not stated),-18.1,0.3
Cc1nc(N2CCN(C)CC2)ncc1-c1cc(=O)[nH]c(N2CCC(Cc3ccccc3)CC2)n1,-1.5,33.8
CN(C1CCCCC1)S(=O)(=O)c1ccc(F)c(F)c1,0.7,-0.1
CN(C)c1ccc(CNC(=O)c2cnc(-c3ccccc3)s2)cc1,2.3,-0.5
CCn1c(O)c(C=NCCSCc2cccs2)c(=O)n(CC)c1=S,5.5,-1.8
CCc1c(C)nn(-c2ccc(C(=O)NCCCO)cc2)c1C,-9.5,-12.1
CCn1cc(NC(=O)N2CCCCCC2)c2ccccc21,0.2,-4.6
CCCn1c(=O)c2c(nc3n2CC(C)CN3Cc2ccccc2)n(C)c1=O (configuration not stated),14.7,6.4
CN(C)CC1(O)CCCN(C(=O)c2cccc(-n3cccn3)c2)CC1 (configuration not stated),9.7,8.9
CC1(c2cccc(Cl)c2)NC(=O)N(CCS(=O)(=O)c2ccc(Cl)cc2)C1=O (configuration not stated),11.6,10.1
CCc1nc2ccc(C(=O)Nc3ccc(Cl)c(Cl)c3)cn2c1N(C)CCN1CCOCC1,14.1,12.1
Cc1csc2c(N3CCCC4(CC3)CN(C)C(=O)O4)ncnc12 (configuration not stated),2.4,1.6
COc1ccc(-c2cnc3ncnn3c2NC(C)CN(C)C)cc1 (configuration not stated),-2.2,-4.2
O=C(Cc1ccc(F)cc1)NNc1ccc2nncn2n1,1.4,0.5
COc1ccc2cccc(NC(=O)CN3C(=O)CCC3=O)c2n1,-6.0,-7.0
CC(C)Cc1cc(C(=O)NC2CC(=O)Nc3ccccc32)n(C)n1 (configuration not stated),15.5,7.3
Cn1c(NNC(=O)c2ccccc2I)cc(=O)n(C)c1=O,1.1,1.3
CCOc1ccccc1N1CCN(C(=O)c2ccc(Cl)cc2Cl)C(C)C1=O (configuration not stated),17.7,23.5
CCSc1ncc(CN2CC[C@@](C)(O)[C@@H](Cc3ccccc3)C2)cn1,-3.8,-4.4
C=c1ccccc1=C1NNC(=Nc2nc(C)cc(C)n2)N1,-2.1,-2.7
CC1(C)[C@]2(C(=O)NCCCOc3cccnc3)CC[C@@]1(C)OC2=O,-4.3,-7.6
O=C(NC(C(=O)NC1CC1)C1CCN(C(=O)c2cccs2)CC1)c1ccc(F)cc1 (configuration not stated),9.8,6.4
CC(C)NC(=O)N(Cc1cc(Cl)ccc1OCc1nc(CO)cs1)C(C)C,-4.0,-3.5
CCOC(=O)c1c(C)c(C(=O)CN(C2CC2)S(=O)(=O)c2ccc(Br)cc2)c(C)n1C,-11.0,0.3
COc1cccc(/C=C/C(=O)N2CCC(CC(N)=O)CC2)c1OC,14.2,13.9
Cc1cc(C(=O)NNC(=O)CCC(=O)c2cc(C)sc2C)c(C)o1,3.5,0.0
O=C(COC(=O)C(Br)C12CC3CC(CC(C3)C1)C2)Nc1ccccc1OC(F)F (configuration not stated),-0.3,-2.2
COCC(=O)N(Cc1ccc(OCc2nc(CO)cs2)cc1)CC1CC1,7.3,10.2
COc1ccc(CN(CCC(C)C)CC(C)(C)O)cc1OC,12.1,17.0
N#Cc1ccc(Cl)cc1N1CCN(CC(=O)N2CCCC2)CC1,-8.6,-9.4
O=C1C2C3C=CC(C3)C2C(=O)N1c1ccc2c(c1)OCCO2 (configuration not stated),4.4,4.6
COc1ccc(C(=O)Oc2ccc3cc(Br)ccc3c2)cc1,1.9,-1.6
O=S(=O)(c1ccccc1)c1nc(NCCc2ccccc2)sc1Cl,9.8,8.7
Cc1cccc(Cn2c(C(=O)NC(C)c3ccccc3)cc3ccsc32)c1 (configuration not stated),38.3,44.3
CNC(=S)NCCc1c[nH]c2ccccc12,15.6,13.9
O=S(=O)(c1ccc(F)cc1Cl)N(Cc1cccs1)CC1CCCO1 (configuration not stated),16.3,13.2
COc1ccc(CNC(=O)Nc2cnc3c(c2)c(C)nn3C)cc1OC,11.1,7.1
NC(=O)c1cnc2n1CCN(C(=O)CN1CCOc3ccccc3C1)C2,7.7,4.1
CCn1ccc(C(=O)N(CCN2CCOCC2)c2nc3c(C)ccc(Cl)c3s2)n1,3.9,0.7
c1ccc(Cn2ncc3c(N4CCN(C(c5ccccc5)c5ccccc5)CC4)ncnc32)cc1,-0.8,-5.9
CC(C)c1noc(CN2CCN(C(=O)C3(C#N)CCCC3)CC2)n1,11.2,8.3
Cc1c(C(=O)N(C)C2CCS(=O)(=O)C2)nnn1-c1ccccc1F (configuration not stated),4.5,8.0
CC(C)[C@H]1CC[C@H](C)C[C@@H]1OCC(=O)NCC1COc2ccccc2O1 (some centres not stated),-7.0,-13.2

# Single records, as listed above. Order of screens: NPYLR7 ag | NPYLR7 ag max-min
# N#Cc1ccc(Cl)cc1N1CCN(CC(=O)N2CCCC2)CC1 across the screens: -8.6 | -9.4
# c1ccc(Cn2ncc3c(N4CCN(C(c5ccccc5)c5ccccc5)CC4)ncnc32)cc1 across the screens: -0.8 | -5.9

# (continued)
SMILES,NPYLR7 ag,NPYLR7 ag max-min
Cc1ccn(-c2ccc(NCc3cccnc3N3CCCCC3)nn2)n1,3.7,2.9
COc1ccccc1NC(=O)Cn1cc(OC)c(=O)cc1CN1CCN(c2ccccc2)CC1,-4.7,-4.8
COc1cccc(-c2cc(C(=O)N3CCN4CCN(C)CC4C3)[nH]n2)c1 (configuration not stated),2.6,1.5
CN(Cc1csc(-c2cccs2)n1)c1ncnc2c1CCNCC2,1.0,0.1
O=S1(=O)CCC(N=Nc2c(O)[nH]c3c(Br)cc(F)cc23)C1 (configuration not stated),3.9,1.2
CC(c1ccccc1)n1cnc2c(c1=O)c1nc3ccccc3nc1n2C (configuration not stated),-3.9,-4.7
C=CCn1c(C(NC(=O)c2ccccc2Cl)C(C)C)n[nH]c1=S (configuration not stated),8.6,11.7
COc1ccccc1NC(=O)c1ccc(Cl)c(S(=O)(=O)N2CCOCC2)c1,24.1,17.1
CC(=O)c1c(C)[nH]c(C(=O)CSc2nc(=O)ccn2C(C)C)c1C,-0.8,-2.4
COc1ccccc1-c1ccc2c(c1)COCC(=O)N2C(C)C,6.0,0.4
Cc1cccc(Cc2nc3c(c(=O)[nH]2)CN(C(=O)Nc2ccc(F)c(Cl)c2)CC3)c1,14.5,26.6
CC(=O)c1cccc(OCC(O)CN(C)C(C)c2ccc(F)c(F)c2)c1 (configuration not stated),6.5,5.3
COCCN(Cc1c(-c2ccccc2)noc1N1CCN(C)CC1)C(=O)c1ccccc1OC,-1.4,1.8
C=CCN1C(=O)C(=Cc2cc(OC)c(OC)c(OC)c2)SC1=S,-2.2,35.9
Cc1ccc2c(c1)C(=O)C(=O)N2CCOc1ccc(C(C)(C)C)cc1,-0.5,-2.8
O=C(c1c(OCc2cccnc2)nn2ccsc12)N(CCO)CCO,22.4,20.1
O=C1Nc2ccccc2C(=O)N2CCC[C@@H]12,3.6,3.9
COC(=O)c1ccc(C2C(=C(O)c3ccc(OC(C)C)cc3)C(=O)C(=O)N2CCCN(C)C)cc1 (configuration not stated),1.5,19.4
Cc1ccc2c(c1)C1(SCCN1C(=O)c1ccc(Cl)cc1)C(=O)N2Cc1ccc(F)c(F)c1 (configuration not stated),3.3,1.6
OC(CC#CCN1CCOCC1)(c1ccccc1)c1ccc(-c2ccccc2)cc1 (configuration not stated),5.6,2.6
CN1CCN(c2ncccc2CNC(=O)c2cccc(-n3cnnc3)n2)CC1,-0.7,-1.8
COc1cn(CC(=O)NCC2CCCO2)c(CSc2ccccc2)cc1=O (configuration not stated),-3.6,-11.3
NC(=O)CSc1nc(N)c(NC(=O)c2ccccc2F)c(=O)[nH]1,-3.8,-6.2
N#Cc1ccccc1OS(=O)(=O)c1cccc(F)c1,-2.2,-3.0
CC(=O)Oc1cc2c(s1)CCN([C@H](C(=O)C1CC1)c1ccccc1F)C2,-12.2,0.8
COCCCN(Cc1ccc(F)cc1)C(=O)Cc1csc(C)n1,6.8,2.4
CC(C)(C(=O)N1CCC1(C)C(=O)Nc1ccc(F)cc1F)c1ccccc1 (configuration not stated),-3.0,-4.1
CN(CC12CC3CC(CC(C3)C1)C2)C(=O)c1ccc[nH]c1=O,2.6,-0.5
O=C(c1csc(-c2ccsc2)n1)N1CCN(c2ncccn2)CC1,10.9,5.0
CSc1nnc(SCc2csc(Cc3ccc(F)cc3Cl)n2)s1,-2.5,7.9
CC(=O)Nc1ccc(Nc2ccc(-n3cccn3)nn2)cc1,-2.7,-8.0
NC(=O)c1nc(-c2ccc(OCc3ccccc3)cc2)nc2c1[nH]c(=O)n2-c1cccc(Cl)c1,7.0,12.2
Cc1ccc(C)c(OCC(=O)N[C@@H](Cc2ccccc2)C(N)=O)c1C,-2.5,-8.3
COc1cccc(OCCN2CCN(c3cc(C)c(C#N)c4nc5ccccc5n34)CC2)c1,11.3,9.5
Cc1cc(C(=O)N(C)CCCOc2c(C)cccc2C)c(=O)[nH]c1C,-0.4,11.4
C=CCc1c(C)c(C#N)c2nc3ccccc3n2c1NCCC,8.7,3.9
Cc1cc(N2CCCC2)ccc1NC(=O)C1CCS(=O)(=O)C1 (configuration not stated),2.6,-0.6
CCC(Sc1nnnn1C1CCOCC1)c1ccc(F)cc1F (configuration not stated),0.3,18.7
CCCc1nnc2c(C(=O)NC(Cc3ccc(Cl)cc3)C(=O)OCC)cccn12 (configuration not stated),13.2,4.0
COCc1cc(C)nc(N/N=C\c2ccc(OC)c([N+](=O)[O-])c2)c1C#N,-1.9,8.5
COc1ccc(-n2c(CCC(=O)NC(=O)C3CCCNC3)cc3c2-c2ccccc2CC3)cc1 (configuration not stated),21.3,9.6
COCC(CC(C)C)OC(=O)c1ccc2nncn2c1 (configuration not stated),6.2,2.7

# An excerpt of these results, as tab-separated lines:
molecule	NPYLR7 ag	NPYLR7 ag max-min
Cc1ccc(C)c(OCC(=O)N[C@@H](Cc2ccccc2)C(N)=O)c1C	-2.5	-8.3
COc1cccc(OCCN2CCN(c3cc(C)c(C#N)c4nc5ccccc5n34)CC2)c1	11.3	9.5
